eIF4H FP inh – inhibitors of RNA binding by human eIF4H. Q15056. eIF4H fluorescence polarization binding assay. inhibition, % at 35 µM. 290,000 compounds, 0.94% hits. AID 2012;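 active = 50% or more with normal probe brightness, or confirmed in later tests; about a fifth of its hits are not listed in these tables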;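 also: calls also rest on retests at 20 µM and on dose response follow-up; 0% = protein and probe with vehicle and 100% = probe without protein; strong numbers were not always called active; many hits fall short of the cut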
HIV Env fusion – inhibitors of HIV Env-mediated cell fusion | inhibition, % at 12.3 µM | HeLa-JRFL Env/CEM21 cell fusion, luciferase | 360,000 compounds, 1.1% hits;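 active = mean replicate inhibition score of at least 50 and every replicate individually at or above 50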;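 also: 0% = plate neutral controls and 100% = maraviroc near 300 nM; one replicate is shown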
Rce1 inhib – inhibitors of yeast Ras-converting enzyme; Q03530; yeast membranes, quenched prenylated peptide cleavage fluorescence; calls only; 290,000 compounds, 0.27% hits;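 active = fall in fluorescence gain of 50% or more versus controls, with final raw signal at or below 3038400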;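 also: plate controls were neutral control wells for no effect and wells lacking membranes for full effect; tested at 10 µM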
CSC inhib – cancer stem cell inhibition | cancer stem cell-like cells viability, luminescence | inhibition, % at 7.5 µM | 300,000 compounds, 1.1% hits | AID 2717;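 active = mean at 75% or more and at least half the replicates too; tested in HMLE shEcad cells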;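 also: 0% = median of negative and 100% = median of positive control wells; the first replicate is given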
UUG fidelity – yeast start codon fidelity modulation; S. cerevisiae UUG-firefly luciferase reporter, luminescence/redox ratio; activity score, % at 18.7 µM; 350,000 compounds, 0.13% hits; AID 602363;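 active = replicate mean at a twofold rise or more, about +100% in these data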;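 also: firefly luciferase made from a UUG start codon reports start codon fidelity; reporter light over untreated wells divided by growth signal over untreated wells; some hits fall short of that in this replicate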
MT1-MMP act inh – MT1-MMP (human) activation inhibition. P50281. GFP/RFP ratio change, % at 20 µM. 360,000 compounds, 0.061% hits. HT1080 RFP-PRO-GFP cells, GFP/RFP ratio fluorescence, overnight; percent of plate control window, DMSO zero;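 active = GFP/RFP ratio change of at least 30% with cell ATP level not reduced by more than half and red fluorescence within 50% of control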; also: strong numbers were not always called active
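Assay system: HT1080 RFP-PRO-GFP cells | Dosing: 20 µM single dose, 1% DMSO | Incubation: Cells overnight before dosing, compound overnight, 37 °C, 5% CO2 | Evaluation: GFP/RFP fluorescence ratio | Control set: DMSO-only wells and HT1080 RFP-L50D-GFP cell wells as references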
PABP FP inh – PABP-poly(A) binding inhibition; P11940; PABP-poly(A) RNA binding, fluorescence polarization; inhibition, % at 35 µM; 290,000 compounds, 1% hits; AID 2014;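 active = 50% or more with normal probe brightness, or confirmed in later tests; about a fifth of its hits are not listed in these tables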;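 also: calls also rest on retests at 20 µM and on dose response follow-up; controls were probe without protein and protein plus probe with vehicle; some compounds called inactive have numbers as strong as hits; many hits fall short of the cut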
Target sequence (P11940 whole entry, looked up): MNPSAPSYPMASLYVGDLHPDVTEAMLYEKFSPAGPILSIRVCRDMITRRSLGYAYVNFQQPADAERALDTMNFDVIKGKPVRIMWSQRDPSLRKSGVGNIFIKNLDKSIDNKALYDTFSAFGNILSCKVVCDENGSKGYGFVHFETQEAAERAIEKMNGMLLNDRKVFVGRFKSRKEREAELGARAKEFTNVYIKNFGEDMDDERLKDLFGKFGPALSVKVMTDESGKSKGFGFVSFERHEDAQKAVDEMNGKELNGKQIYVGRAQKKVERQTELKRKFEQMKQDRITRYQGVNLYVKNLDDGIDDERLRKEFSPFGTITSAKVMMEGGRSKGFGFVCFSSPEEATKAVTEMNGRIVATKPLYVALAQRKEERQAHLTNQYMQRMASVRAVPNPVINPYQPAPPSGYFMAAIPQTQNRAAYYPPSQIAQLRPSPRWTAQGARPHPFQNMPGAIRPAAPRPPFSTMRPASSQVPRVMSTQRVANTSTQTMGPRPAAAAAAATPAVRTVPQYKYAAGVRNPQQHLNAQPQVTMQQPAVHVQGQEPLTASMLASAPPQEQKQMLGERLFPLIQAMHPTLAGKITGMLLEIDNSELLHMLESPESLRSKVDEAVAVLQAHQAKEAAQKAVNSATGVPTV
eIF4H FP inh retest – recorded beside eIF4H FP inh, whose call it bears; inhibition, %; compound at 20 µM; confirmation average;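 mean of two retest wells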
PABP FP inh retest – second read-out of PABP FP inh, no call of its own (marks repeat the call); inhibition, %; compound at 20 µM; confirmation repeats;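 mean of two retest wells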
MT1-MMP act inh RFP – further read-out of MT1-MMP act inh, marked with its call; RFP signal change, %; measured here: RFP expression control read;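 0 = vehicle wells; hits needed this value within 50% of zero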
Starred values were filed as active, the others as inactive; i = inactive; · = no result given; & = joins results of further samples; [ ] = another dose, or the depositor's remark.

The first two compounds, ahead of the listing:
SMILES	eIF4H FP inh	HIV Env fusion	Rce1 inhib	CSC inhib	UUG fidelity	MT1-MMP act inh	MT1-MMP act inh RFP	PABP FP inh	others
COC(=O)c1cc(=O)nc2sc3cc(OC)ccc3n12	-9	-25	i	-12	·	2	4	0
CCCCNS(=O)(=O)CCNCCc1ccccc1	·	-12	·	·	-17	5	10	·

The listing, from the first entry:
SMILES	eIF4H FP inh	HIV Env fusion	Rce1 inhib	CSC inhib	UUG fidelity	MT1-MMP act inh	MT1-MMP act inh RFP	PABP FP inh	others
COC(=O)c1cc(=O)nc2sc3cc(OC)ccc3n12	-9	-25	i	-12	·	2	4	0
CCCCNS(=O)(=O)CCNCCc1ccccc1	·	-12	·	·	-17	5	10	·
Cc1ccc2ccc(C#N)cc2c1O	·	23	·	·	-25	-7	7	·
CC1(C)CC(/C=C/c2ccccc2)=Nc2ccccc2N1	12	-11	i	4	·	-4	-5	1
Cc1c(NC(=S)NC(=O)c2ccc(Br)o2)c(=O)n(-c2ccccc2)n1C	-2	-12	i	-14	-18	1	3	-8
O=C(CCNC(=O)c1ccc(Br)cc1)NNC(=O)c1ccccc1	·	-5	·	-23	-6	0	2	·
CC(C)C(NC(=O)c1ccccc1F)C(=O)NCc1ccc(F)cc1 (stereo not given)	-7	1	i	-12	-12	2	5	-2
CC(C)NC(=O)C1(C)CCCN1Cc1csc2ccccc12 (stereo not given)	·	10	·	·	-14	1	3	·
COc1cc(Cl)c(C)cc1NC(=O)CSc1ccc(C)cc1	1	·	i	6	·	2	-2	-14
CCN(CC)S(=O)(=O)c1cccc(C(=O)N[C@@H](C)c2nc3ccccc3[nH]2)c1	2	-2	i	-3	·	·	·	6
CC(NC(=O)COC(=O)c1cc(S(=O)(=O)N2CCOCC2)ccc1F)c1ccccc1 (stereo not given)	·	·	·	6	12	3	-1	·
O=C(/C=C/c1ccccc1)c1ccc2c3c(cccc13)CC2	-6	-47	i	·	·	0	2	6
O=C(Nc1ccccc1N1CCOCC1)c1ccc(Cl)c(S(=O)(=O)N2CCCC2)c1	·	-12	·	·	-12	-4	-12	·
O=C(NCc1ccc(F)cc1)C(=O)NCC1OCCCN1S(=O)(=O)c1cccs1 (stereo not given)	1	-15	i	-9	1	-1	2	9
CCOc1ccc(C2N(c3ccc(OC)cc3)C(=O)C3CCCN32)cc1OC (stereo not given)	2	-15	i	1	-13	0	2	2
Cc1ccc(NS(=O)(=O)c2cccc(C(=O)NNC(=O)c3ccco3)c2)c(C)c1	·	2	i	-7	·	4	-1	·
CNC[C@H]1Oc2ccc(NC(=O)Cc3cn(C)c4ccccc34)cc2CC(=O)N([C@@H](C)CO)C[C@H]1C	·	7[16.7 µM]	·	-14	16&14	-3	2	·
Cc1onc(-c2c(F)cccc2Cl)c1C(=O)Nc1cccc(S(=O)(=O)NCc2ccco2)c1	-2	21	·	2	·	2	1	1
Nc1c(-c2cccc(Cl)c2)cnc2c(-c3ccccc3)cnn12	-8	-154	i	7	-9	0	-2	2
CC(C)c1ccc(OCC(O)CN2CCN(c3ccccc3)CC2)cc1 (stereo not given)	-18	-4&-1	i	47	-14	-4&2	1&1	9
O=C(NC1CCCCCC1)c1cccc(COCC(F)(F)F)c1	4	22	i	-2	-17	3	-3	2
CC1(C)SC(=S)N(/N=C/c2ccccc2)C1N(O)C(=O)Nc1ccc([N+](=O)[O-])cc1 (stereo not given)	8	-26	i	1	-13	-13	-17	-10
O=c1c2ccccc2nnn1CSc1nnc(C2COc3ccccc3O2)n1-c1ccccc1 (stereo not given)	-1	37	i	-19	-10	-4	-1	-7
CN1/C(=C\C(=O)Nc2ccc(Br)cc2)C(C)(C)c2ccccc21	-6	10	i	76*	-10	1	5	-5
Cc1ccccc1NC(=O)Cn1c([N+](=O)[O-])cnc1C	3	3	i	·	-14	4	8	7
SMILES	eIF4H FP inh	HIV Env fusion	Rce1 inhib	CSC inhib	UUG fidelity	MT1-MMP act inh	MT1-MMP act inh RFP	PABP FP inh	others
CCOc1[nH]n(-c2ccc(Cl)cc2)c(=O)c1C=NCC(=O)OC	-14	-7	i	-2	-2	3	2	-8
O=C(NCCc1c[nH]c2ccccc12)C(=O)NCC1CCCO1 (stereo not given)	-1	-15	i	-3	-11	1	0	3
COc1ccc(C(CNC(=O)COc2cccc(C)c2)N2CCCC2)cc1 (stereo not given)	·	-8	·	·	-1	-2	2	·
O=C(N/N=C/c1cccnc1)C1CCCCC1	-9	4	i	15	-10	0	1	-4
C=CCn1cc(C(=O)NCc2cccnc2)c(=O)c2cc(S(=O)(=O)N(CC)CC)ccc21	-4	21	i	3	-9	-1	-1	2
O=C(COC(=O)c1ccc(Br)o1)NCc1ccc(F)cc1	·	·	·	-1	-25	-1	2	·
Cc1noc(C)c1COc1cccc(C(=O)OC(C)C(=O)Nc2c(C)n(C)n(-c3ccccc3)c2=O)c1 (stereo not given)	-3	3	i	-9	1	3	2	-6
O=Cc1c(NCc2ccc(Cl)cc2)c2ccccc2[nH]c1=O	-16	-13	i	2	0	1	1	8
COc1ccc(C2=NOC(C(=O)Nc3c(C)n(C)n(-c4ccccc4)c3=O)C2)cc1 (stereo not given)	-2	7	i	2	-8	0	4	2
CCOc1ccc(CCNC(=O)COC(=O)c2sccc2C)cc1OCC	·	3	i	-12	·	-5	-4	·
Cc1ccccc1Nc1sc(C(=O)Nc2cccc(Cl)c2)c(N)c1C(N)=O	-5	6	i	·	·	0	2	15
COc1ccc(NC(=O)CCN2CCN(S(=O)(=O)c3ccc(Cl)cc3)CC2)cc1	0	·	i	3	-1	4	-3	3
COc1c(C(CC(C)C)OC(C)=O)ccc2c1C(=O)OCc1cc(C)cc(O)c1O2 (stereo not given)	8	·	i	-14	-3	-5	-30	12
NS(=O)(=O)c1ccc(-c2ccc(/C=N/Nc3ccc(C(=O)O)cc3)o2)cc1	56*	-3	i	8	-26	-12	4	33	eIF4H FP inh retest=74*;PABP FP inh retest=38
O=C(CN1C(=O)NC2(CCCC2)C1=O)OCc1ccc(Cl)c(Cl)c1	·	·	i	15	·	-6	-2	·
CCOc1cc(NC(=S)Nc2ccccc2OC)c(OCC)cc1NC(=O)c1ccccc1C	-7	-7	i	4	-11	-1	-3	-7
COc1ccc(C)cc1NC(=O)COC(=O)Cc1ccc(-c2ccccc2)cc1	-9	-31	i	-9	0	-7	-4	-4
O=C1COc2cc(ccc2[N+](=O)[O-])Oc2ccc(cc2Cl)C(=O)CCCCO1	·	8	i	9	-15	-5	-4	·
CCOc1ccc(N2CC(C(=O)N3CCc4ccccc43)CC2=O)cc1 (stereo not given)	2	0	i	5	-16	1	3	0
CCN(CC)CCNC(=O)Cn1c(-c2ccccn2)nc2ccccc21	0	·	i	-2	-16	3	0	6
CCCC(=O)N=C1SC2CS(=O)(=O)CC2N1c1ccc(C(C)=O)cc1 (stereo not given)	-9	·	i	-1	-2	1	5	-13
CCOc1ccc(CCNC(=O)COC(=O)c2c(C)nn(-c3ccccc3)c2C)cc1OCC	1	-5	i	-5	-3	-1	1	4
CCN1CCN(c2cc(C)c3cc(NC(=O)CCC(=O)N4CCN(c5ccccc5OC)CC4)ccc3n2)CC1	1	5	i	12	-9	-7	-3	-4
COCCNC(=O)Cn1cnc2c(cnn2-c2ccc(C)cc2)c1=O	2	19	·	5	-20	3	1	5
CCN=C(NCC)SC1CC(=O)N(c2ccc(OCC)cc2)C1=O (stereo not given)	-7	4	i	-3	-13	1	5	20

Five records picked at random from the list so far:
SMILES	eIF4H FP inh	HIV Env fusion	Rce1 inhib	CSC inhib	UUG fidelity	MT1-MMP act inh	MT1-MMP act inh RFP	PABP FP inh	others
CCOc1ccc(CCNC(=O)COC(=O)c2sccc2C)cc1OCC	·	3	i	-12	·	-5	-4	·
O=C(CN1C(=O)NC2(CCCC2)C1=O)OCc1ccc(Cl)c(Cl)c1	·	·	i	15	·	-6	-2	·
CCOc1[nH]n(-c2ccc(Cl)cc2)c(=O)c1C=NCC(=O)OC	-14	-7	i	-2	-2	3	2	-8
O=C(COC(=O)c1ccc(Br)o1)NCc1ccc(F)cc1	·	·	·	-1	-25	-1	2	·
COc1c(C(CC(C)C)OC(C)=O)ccc2c1C(=O)OCc1cc(C)cc(O)c1O2 (stereo not given)	8	·	i	-14	-3	-5	-30	12

(continued)
SMILES	eIF4H FP inh	HIV Env fusion	Rce1 inhib	CSC inhib	UUG fidelity	MT1-MMP act inh	MT1-MMP act inh RFP	PABP FP inh	others
COc1ccc(-c2c(-c3cc(OC)cc(OC)c3)n(C)c3ccc(-c4ccc(OC)c(F)c4)cc23)cc1	·	20	·	23	-6	-5	0	·
COc1ccc(-c2cc(C(F)(F)F)nc(N3CCN(C)CC3)n2)cc1	-2	-31	i	3	-5	-15	-9	-6
CCc1ccc(C(=O)C(C)OC(=O)Cc2n[nH]c(=O)c3ccccc23)cc1 (stereo not given)	-6	40	i	·	1	2	-8	-8
COc1c(C)cc(S(=O)(=O)N2CCOCC2)c(C)c1C	-5	5	i	0	-7	-1	0	3
COc1cc(NC(=O)CN(C)S(=O)(=O)c2cccs2)cc(OC)c1	-6	5	i	9	-13	-7	-4	-2
CCCCOc1ccc(C2C3CN(C(=O)OCC)CC=C3C(C#N)=C(N)C2(C#N)C#N)cc1OC (stereo not given)	3	·	i	-18	-21	-33	-7	1
COc1cc2c(cc1OC)CN(CC(=O)NC(=O)NCc1ccco1)CC2	2	·	i	6	-11	-5	-2	3
CC1CCCCN1CC(=O)c1c[nH]c2ccccc12 (stereo not given)	-3	2	i	-12	-9	-4	-1	2
Cc1cc(C(=O)CN2CC(C)OC(C)C2)c(C)n1-c1ccccc1 (stereo not given)	0	-22	i	5	-15	-3	-2	19
CCCCOc1cccc(-c2cc(C(=O)NNC(=S)NCC)c3ccccc3n2)c1	17	-73	i	12	-7	39*	-1.8*	8
O=C(NCc1cccnc1)c1cccc(S(=O)(=O)N2CCOCC2)c1	3	-11	i	-1	-11	0	3	10
CC(C)(C)n1c(=O)[nH]c2c(c1=O)CCC2	-4	·	i	-4	-12	1	7	-1
COc1ccccc1OCCC(=O)NCc1ccc2c(c1)OCO2	9	-11	i	-5	-9	3	3	-5
O=c1[nH][nH]c(-c2ccccc2)c1C=Nc1ccc(OC(F)(F)F)cc1	-7	23	i	-8	-7	1	3	-4
Cc1cc(Cl)c(S(=O)(=O)N2CCCCCC2)cc1OCC(=O)NC1CCCCC1	-2	51*	i	14	-14	2	-16	0
O=C(c1c(F)cccc1F)N(C1CCCCC1)C1CCCCC1	-9	6	i	7	4	-4	-4	-6
Cc1cccc(C(=O)NC(=O)Nc2c(C)cc(C)nc2C)c1	9	7	i	-15	·	2	-3	-8
O=C(NC(=S)Nc1ccc([N+](=O)[O-])cc1)c1ccco1	·	-10	·	·	-23	1	0	·
O=C(CCc1ccncc1)N1CCCC(Nc2ccc(F)c(F)c2)C1 (stereo not given)	·	9	i	32	-2	-5	-5	·
c1ccc(OCc2nc(-c3ccccc3)no2)cc1	-5	-78	·	-5	-14	1	-6	14
CC(C)OC(=O)CC(=O)CSc1nc2c(cc1C#N)CCCCC2	8	-103	i	5	-6	0	2	17
COc1cccc(C(=O)NCCS(=O)(=O)N2CCCC2)c1	·	·	i	-6	-9	1	3	·
Cc1ccccc1-n1ccnc1SCC(=O)NCc1ccco1	0	5	i	-13	-22	-4	0	6
COc1ccccc1CN(C)CC(=O)NC(=O)NC1CCCCC1	·	7	·	-12	-3	4	3	·
O=C(c1n[nH]c2ccccc12)N1CCCCC1	0	-6	i	-7	13	-1	3	5
Cc1cc(Cl)ccc1C(=O)C1CCCN(C(=O)c2cnsn2)C1 (stereo not given)	-6	10	i	-4	0	-4	2	1
Cc1cccc(C)c1NC(=O)C1(C)CCC(=O)N1CCc1c[nH]c2ccccc12 (stereo not given)	·	-20	·	·	13	0	4	·

Screening results: PubChem, several laboratories

These rows are one share of the data; rates above refer to the full screens.
